Screens as filed in PubChem BioAssay.
MT1-MMP reporter = MT1-MMP gene expression reporter suppression – cell-based, luciferase reporter, luminescence (AID 618); MT1-MMP promoter luciferase reporter cells, luminescence; calls from a first round at 10 µM; hits with a dose series show EC50 in µM; actives 0.62% (n = 87,000);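 active means over half of the reporter light lost at 10 µM or EC50 under 50 µM; inactive means the rest and hits that failed the dose series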;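 further: actives suppress MT1-MMP promoter-driven transcription so potencies describe inhibitors; HT1080 fibrosarcoma cells; overnight exposure; toxic or luciferase-blocking compounds were not removed from the actives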
WNV protease inh = WNV NS2B-NS3 proteinase inhibition | P06935 | z-score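 (tested at a level between 10 and 100 µM)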 | WNV NS2B-NS3 protease, fluorogenic substrate Ex360/Em465; active compounds read low | AID 577 | actives 0.18% (n = 65,000);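 active means z-score at -3 or under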;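 further: score is relative to mean and spread of the compound wells of a plate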
Target sequence (P06935 1371-1501 limits assumed): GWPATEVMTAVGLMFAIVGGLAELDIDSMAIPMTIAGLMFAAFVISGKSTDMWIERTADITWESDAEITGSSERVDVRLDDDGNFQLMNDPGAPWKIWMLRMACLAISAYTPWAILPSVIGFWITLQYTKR
Target sequence (P06935 1502-1679 limits assumed): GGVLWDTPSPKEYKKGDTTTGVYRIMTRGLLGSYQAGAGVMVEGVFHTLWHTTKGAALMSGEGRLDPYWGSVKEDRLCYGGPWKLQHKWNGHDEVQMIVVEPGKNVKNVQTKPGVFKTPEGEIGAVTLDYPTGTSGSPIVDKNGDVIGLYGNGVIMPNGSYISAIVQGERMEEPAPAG
Hsc70 = Hsc70 inhibitors, probe displacement, primary screen, biochemical, fluorescence polarization (AID 568); Hsc70 fluorescence polarization, probe displacement; higher % means a stronger effect; strong numbers were not always called active; displacement, % at 20 µM; hits with a dose series show IC50 in µM; 83,000 tested, under 10 active;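 active means displacement above 50% without optical interference and an IC50 on retest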;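 further: ATPase domain with a fluorescein-tagged ATP probe; 0% = vehicle and 100% = excess ADP; read after one hour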
Numbers without * were called inactive; i = inactive; / = not tested or not shown.

SMILES,MT1-MMP reporter,WNV protease inh,Hsc70
CCOCCCNC(=O)c1ccc2c(c1)OCO2,i,1,3.0%
COc1cccc(C(O)c2nc3ccccc3n2C(C)C)c1 (stereo unspecified),i,/,-0.6%
CCOC(=O)c1c(CN2CCOCC2)n(-c2ccccc2)c2ccc(O)cc12,i,0.47,-1.4%
O=S(=O)(NCCc1csc(-c2ccccc2)n1)c1ccc2c(c1)OCCO2,i,-0.52,-2.8%
CC(OC(=O)c1cc2sccc2n1C)C(=O)NCC1CCCO1 (stereo unspecified),i,-0.03,-8.9%
CCNS(=O)(=O)c1ccc(OCCNS(C)(=O)=O)cc1,i,0.28,0.5%
CCCc1cc(=O)[nH]c(Nc2cc(OC)ccc2OC)n1,i,-0.13,0.6%
Cn1cnnc1SC(C(=O)Nc1cc(Cl)cc(Cl)c1)c1ccccc1 (stereo unspecified),i,/,-1.8%
CCOC(=O)c1sc2nc(NC(=O)C3CC3)sc2c1C,i,-0.81,-2.0%
CN(C)S(=O)(=O)c1cccc(NC(=O)Cn2cnc3ccccc3c2=O)c1,i,/,1.4%
Cc1cc(C)n(-c2nc(SCC(=O)NCC3CCCO3)c3c4c(sc3n2)CCCC4)n1 (stereo unspecified),i,0.76,-6.6%
CC(C)OC(=O)CC12CN3CC(CC(=O)OC(C)C)(CN(C1)C(=O)c1ccccc1C3=O)C2=O,i,1.3,-1.6%
CCC(C)(C)n1nnnc1C(c1ccc(OC)c(OC)c1)N1CCN(c2ccc(OC)cc2)CC1 (stereo unspecified),i,1.1,3.2%
CCSc1nnc(-c2ccc(S(=O)(=O)NCc3cccs3)cc2)o1,i,0.67,1.2%
CCC(c1nnnn1Cc1ccco1)N(Cc1ccccc1OC)Cc1cc2cc(C)ccc2[nH]c1=O (stereo unspecified),i,-2,-6.2%

The final 2 compounds of the section above lead into the next.
SMILES,MT1-MMP reporter,WNV protease inh,Hsc70
CCSc1nnc(-c2ccc(S(=O)(=O)NCc3cccs3)cc2)o1,i,0.67,1.2%
CCC(c1nnnn1Cc1ccco1)N(Cc1ccccc1OC)Cc1cc2cc(C)ccc2[nH]c1=O (stereo unspecified),i,-2,-6.2%
CN(C)c1ccc(C(=O)N2CC(=O)N(CCc3ccccc3)C(=O)C2)cc1,i,-0.05,-3.6%
CCCCN1C(=S)SC(C)(C)C1/[N+]([O-])=C/c1cccnc1 (stereo unspecified),i,/,1.6%
CCOC(=O)CSc1nnc(CCc2nc3ccccc3[nH]2)n1C,i,0.36,5.2%
CCN(CC)S(=O)(=O)c1cccc(-c2nnc(SCCCC(=O)c3ccc(F)cc3)o2)c1,i,-0.16,-5.2%
COCCN(CCOC)Cc1c(C)[nH]c2c(C)c(C)ccc2c1=O,i,-0.05,4.5%
O=C(NC1=NCCS1)c1cccc(NC(=O)c2ccco2)c1,i,-0.07,2.1%
COc1ccc(OC)c(S(=O)(=O)Nc2c(F)cccc2F)c1,i,-0.97,-5.3%
C/C=C/COc1nc2c(c(=O)n(C)c(=O)n2C)n1C,i,-0.72,2.9%
CCC(CO)n1c(SCc2cc(=O)oc3cc(C)ccc23)nc2ccccc2c1=O (stereo unspecified),i,/,4.5%
O=C(Nc1nc2nc(-c3ccccc3)cc(-c3ccccc3)n2n1)c1ccco1,i,-0.01,2.8%
O=C(CNC(=O)c1ccc(Br)cc1)NCCc1nc2ccccc2[nH]1,i,/,3.5%
COc1ccc(OC)c(Nc2cc(C)nc3ccccc23)c1,i,-0.14,-8.0%
CCOC(=O)N1CCN(Cc2nc3c(c(=O)[nH]c(=O)n3C)n2Cc2ccccc2C)CC1,i,-0.27,1.8%
C[N+]1(CC(=O)Nc2ccccc2Cl)CCN(C(=O)c2cccs2)CC1,i,/,2.6%
Cc1ccc(-n2ncc3c(N4CCC5(CC4)OCCO5)ncnc32)c(C)c1,i,-0.4,-0.1%

(next part)
SMILES,MT1-MMP reporter,WNV protease inh,Hsc70
COc1ccccc1N(C)S(=O)(=O)c1ccc(C(=O)OCC(=O)NCc2ccco2)cc1,i,1.1,-6.0%
CNC(=O)Cn1ncc2c(C)n(Cc3ccc(C)cc3)c(C)c2c1=O,i,0.45,1.8%
O=c1c2ccccc2sc2nc(C3CCCCC3)n(Cc3ccco3)c(=O)c12,i,0.09,-15%
CC(C)(C)c1cc(CN(CCO)CCO)cc(C(C)(C)C)c1O,i,-0.67,2.1%
O=C(c1cc2c(s1)CCCC2)N1CCN(C(=O)C2CCCO2)CC1 (stereo unspecified),i,-1.1,3.0%
C(=N\c1nc2ccccc2n1CCN1CCOCC1)/c1cccs1,i,-0.74,2.5%
CCCN1Cc2cccc(C(=O)Nc3ccc(N4CCN(CC)CC4)cc3)c2C1=O,i,0.16,-11%
CCOC(=O)C1=C(C)NC(=O)NC1c1ccc2c(c1)OCO2 (stereo unspecified),i,-0.27,1.8%
CCCc1[nH]nc2c1C(c1ccc(OC)cc1OC)C(C#N)=C(N)O2 (stereo unspecified),i,0.61,0.5%
Cc1ccc(/C=c2/sc3n(c2=O)CCCN=3)o1,i,/,-4.7%
O=S(=O)(c1ccc(S(=O)(=O)n2cnc3ccccc32)cc1)N1CCCCCC1,i,0.57,-3.2%
Cn1c2c(c(=O)n(C)c1=O)C(NC(=O)C(C)(C)C)(C(F)(F)F)C(=O)N2 (stereo unspecified),i,0.29,2.3%
CCN1C(=O)/C(=C\N2CCCCCC2)SC1=S,i,0.84,-2.2%
CCOC(=O)C1CCN(CC(=O)Nc2c(C(=O)OC)[nH]c3ccccc23)CC1,i,-0.48,0.9%
CC(C)(C)NC(=O)c1cc(F)c(F)cc1Cl,i,/,2.4%

Record cards (already shown):
O=c1c2ccccc2sc2nc(C3CCCCC3)n(Cc3ccco3)c(=O)c12 across the screens: MT1-MMP reporter = i; WNV protease inh = 0.09; Hsc70 = -15%
O=C(c1cc2c(s1)CCCC2)N1CCN(C(=O)C2CCCO2)CC1 (stereo unspecified) across the screens: MT1-MMP reporter = i; WNV protease inh = -1.1; Hsc70 = 3.0%
CCN1C(=O)/C(=C\N2CCCCCC2)SC1=S across the screens: MT1-MMP reporter = i; WNV protease inh = 0.84; Hsc70 = -2.2%

The list goes on.
SMILES,MT1-MMP reporter,WNV protease inh,Hsc70
C=CCNC(=S)/N=c1\sccn1C,i,/,1.1%
Cc1c(NC(=O)CSc2cccc3cccnc23)c(=O)n(-c2ccccc2)n1C,i,/,-2.4%
CN(C)c1ccc(NC2=C([N+](=O)[O-])CS(=O)(=O)C2)cc1,i,/,1.4%
COc1ccc(N(CC(=O)O)S(=O)(=O)c2ccc(OC)c(OC)c2)cc1,i,-0.34,-6.0%
CCN(CC)S(=O)(=O)c1ccc(NC(=O)c2ccc(NS(C)(=O)=O)cc2)cc1,i,-0.54,9.5%
Cc1ccc(C(=O)/C=C2/NC(=O)CS2)cc1,i,/,-2.8%
COc1ccc2c(CC(=O)Nc3nnc(C4CC4)s3)coc2c1,i,0.02,-17%
NC(=O)c1sc(=S)n(-c2ccc(Br)cc2)c1N,i,0.16,3.9%
O=C(CN(Cc1ccc2c(c1)OCO2)C(=O)CNS(=O)(=O)c1ccccc1)NCC1CCCO1 (stereo unspecified),i,1.7,2.6%
COc1cccc(-c2nnn(CC(C)=O)n2)c1,i,/,-2.6%
O=C(Oc1cccnc1)c1ccc(Cl)cc1,i,1.6,-3.2%
O=[N+]([O-])c1ccc(Sc2nc3ccccc3o2)c([N+](=O)[O-])c1,i,/,-40%
CCCCCCC1CC(CSC(=N)N)OC1=O (stereo unspecified),i,/,-1.4%
COC(=O)/C=c1/s/c(=C(/C#N)C(=O)N2CCOCC2)n(-c2ccccc2)c1=O,i,-0.33,14%
CCOC(=O)CSc1nc(-c2cccs2)nc2c1c(=O)n(C)c(=O)n2C,i,-0.59,3.1%

The listing continues:
SMILES,MT1-MMP reporter,WNV protease inh,Hsc70
Cc1cc(S(=O)(=O)NCc2ccco2)c(C)s1,i,1.1,-2.0%
CCOC(=O)N1CCN(C(=O)CCCn2c(=S)[nH]c3ccccc3c2=O)CC1,i,-0.73,-17%
Nc1nc(SCC(=O)N2CCc3ccccc3C2)[nH]c(=O)c1-c1ccccc1,i,-1,-2.6%
CCOC(=O)N1CCC(N2CC34C=CC(O3)C(C(=O)Nc3ccc(C(C)C)cc3)C4C2=O)CC1 (stereo unspecified),i,0.27,1.1%
CCC1(C)OC(=O)N2CCc3c(C)[nH]c4c(C)ccc(c34)C21C (stereo unspecified),i,1.3,-1.0%
COc1ccc(NS(=O)(=O)c2cccc(-c3nnc(-c4ccccc4)o3)c2)cc1,i,/,-0.3%
CS(=O)(=O)N(CC(=O)Nc1ccccc1C(=O)N1CCOCC1)c1ccccc1,i,/,1.6%
CCOc1ccc2[nH]c(=O)c(C(c3nnnn3Cc3ccco3)N3CCC(C)CC3)cc2c1 (stereo unspecified),i,-0.08,-1.2%
Cc1cccc(Cn2c(Sc3nc(C)cs3)nc3c2c(=O)[nH]c(=O)n3C)c1,i,-1.2,-5.2%
CCc1nnc(NC(=O)c2ccc(COc3ccc(C)cc3)o2)s1,i,-1.2,10%
CCOc1ccc(CCNC(=O)CN(C)S(=O)(=O)c2ccc3c(c2)CCC(=O)N3)cc1OCC,i,0.11,3.1%
c1ccc(-n2nnnc2SCc2cccc(CSc3nnnn3-c3ccccc3)n2)cc1,i,/,2.3%
CCN(CC)C(=O)C1CCCN(c2ncnc3c2cnn3-c2cccc(C)c2)C1 (stereo unspecified),i,1.1,15%
CCOc1cc(S(=O)(=O)NCCc2ccccc2C)c(OCC)cc1-n1cnnn1,i,0.65,-2.9%
COC(=O)C(C)N(C#N)c1nc(NC(C)C)nc(SC)n1 (stereo unspecified),i,/,-3.1%

Copied from the list.
WNV protease inh, CCOc1cc(S(=O)(=O)NCCc2ccccc2C)c(OCC)cc1-n1cnnn1 reads 0.65
WNV protease inh, CCOc1ccc(CCNC(=O)CN(C)S(=O)(=O)c2ccc3c(c2)CCC(=O)N3)cc1OCC reads 0.11
Hsc70, CS(=O)(=O)N(CC(=O)Nc1ccccc1C(=O)N1CCOCC1)c1ccccc1 reads 1.6%
WNV protease inh, CCc1nnc(NC(=O)c2ccc(COc3ccc(C)cc3)o2)s1 reads -1.2

Next part
SMILES,MT1-MMP reporter,WNV protease inh,Hsc70
Clc1ccc(Br)cc1-c1nc(-c2cccnc2)no1,i,-0.45,3.8%
Cc1cc(C)nc(Nc2n[nH]c(COc3ccc(Cl)cc3)n2)n1,i,-1.9,-0.4%
O=C(CCS(=O)(=O)c1ccccc1)Nc1nc(-c2ccccn2)cs1,i,2.4,5.1%
Cc1ccc(OCC(O)CNS(=O)(=O)c2ccccc2C(=O)O)cc1 (stereo unspecified),i,1.5,-0.1%
CCOC(=O)c1nnn(-c2nonc2N)c1CNc1ccccc1,i,-0.79,-3.2%
CC1(C)C(C#N)=C(N)OC2=C1C(=O)CCC2,i,0.68,6.0%
Cc1cc(=O)n2[nH]c(-c3ccc(F)cc3)cc2n1,i,-0.61,-5.9%
CCOC(=O)C(N)CSC1CC(=O)N(c2ccc(C(=O)OC)cc2)C1=O (stereo unspecified),i,1,1.6%
CCC(C)NC(=O)NC(=O)N(C1CCCCC1)S(C)(=O)=O (stereo unspecified),i,/,-1.5%
COc1ccc(C2Nc3ccccc3C(=O)N2Cc2ccco2)cc1COc1ccc(NC(C)=O)cc1 (stereo unspecified),i,1.3,-3.9%
O=C(O)CCSc1nnc(-c2ccncc2)n1-c1ccccc1,i,2.4,4.3%
O=C(Nc1nc(-c2ccc(Cl)s2)cs1)c1cccs1,i,-0.38,-7.6%
CC(=O)Nc1c(-c2ccccc2)nc2ncccn12,i,0.27,4.1%
N#CCCN(Cc1cccnc1)C(=O)Nc1ccc(Cl)c(Cl)c1,i,-0.42,8.2%
CCn1c(NC(=O)C2CCCCC2)nc2ccccc21,i,/,-4.1%

Later entries.
SMILES,MT1-MMP reporter,WNV protease inh,Hsc70
CCOC(=O)c1c(NC(=O)c2ccco2)n(C2CCCCC2)c2nc3ccccc3nc12,i,/,-3.3%
CC1(C)OC(=O)C(C(c2ccccc2)C(C#N)C(N)=O)=C(O)O1 (stereo unspecified),i,0.05,-3.0%
O=C(Cn1cc2c(n1)CCCC2)NCCc1ccccc1,i,0.46,0.0%
CC(CCc1ccccc1)NC(=O)C1CCN(C(=O)c2sccc2-n2cccc2)CC1 (stereo unspecified),i,-1.4,1.8%
CCOC(=O)N1CCN(C2=Nc3cccc4cccc2c34)CC1,i,0.01,18%
COC(=O)c1nc2n(n1)C(c1ccc(OC)c(OC)c1OC)C1=C(CCCC1=O)N2 (stereo unspecified),i,-0.92,3.7%
O=C(O)c1c[nH]c2ccc(S(=O)(=O)N3CCOCC3)cc12,i,-1.9,-3.1%
Cc1ccc(NC(=O)CCn2cccc2)cc1F,i,/,1.3%
CCS(=O)(=O)N1CCN(C(=O)COc2ccc(-c3ccccc3)cc2)CC1,i,/,-0.6%

This is a subset. The share of hits here may be higher or lower than overall.
